Rango complex inh: qHTS Assay for Inhibitors of Rango (Ran-regulated importin-beta cargo) - Importin beta complex formation. hit rate 0.031% among 340,000. Potency, µM (doses to about 92.2 µM), for the others: top-dose inhibition of complex formation. Rango CFP/YFP FRET sensor + importin beta, 45 min. AID 540263, 2011. Importin subunit beta-1 (Homo sapiens), Q14974; active = rising FRET ratio curve, often small or poorly fitted; inconclusive = mostly compound fluorescence or quenching in the first reads; inactive = flat curves in all reads;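 note: potency is the fitted concentration of half-maximal effect; 0% = DMSO wells and 100% = buffer wells lacking importin beta; nearly all actives have a fitted effect of over 15% in size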
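Inhibition scored from the CFP 486 nm/YFP 530 nm FRET ratio 45 min after adding 0.125 microM importin beta to 50 nM Rango biosensor preincubated 5 min with compound (room temperature, PBS with DTT, Tween-20, BSA). No-importin wells as positive control.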
GLA inh pH 4.5: qHTS Assay for Inhibitors of Human alpha-Galactosidase at pH 4.5. purified enzyme, 4-MU-alpha-Gal fluorescence, pH 4.5. 230,000 tested, under 10 active. activity change, negative = inhibition, % at 105 µM; inconclusive = small, poorly fitted or top-dose-only inhibition, or a rising curve; inactive = flat fitted curve, though single readings scatter; no compound was filed as active;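 note: 0% = full activity with enzyme and -100% = basal without enzyme; dose as in the result columns while the protocol names 77 µM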
Target sequence (P06280 whole entry, looked up): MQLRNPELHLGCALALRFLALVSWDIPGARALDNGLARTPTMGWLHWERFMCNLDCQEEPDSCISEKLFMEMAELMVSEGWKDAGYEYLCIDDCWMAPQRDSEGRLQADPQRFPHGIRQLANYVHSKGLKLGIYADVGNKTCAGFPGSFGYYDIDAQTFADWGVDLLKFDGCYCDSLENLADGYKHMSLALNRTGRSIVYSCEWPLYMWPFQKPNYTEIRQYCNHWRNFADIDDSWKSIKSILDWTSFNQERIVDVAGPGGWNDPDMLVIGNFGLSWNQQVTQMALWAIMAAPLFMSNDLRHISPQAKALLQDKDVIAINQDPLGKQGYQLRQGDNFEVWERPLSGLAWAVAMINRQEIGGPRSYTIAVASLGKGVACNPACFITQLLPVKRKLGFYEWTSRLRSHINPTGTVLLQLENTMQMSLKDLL
Rango dissoc inh: qHTS Assay for Inhibitors of RanGTP induced Rango (Ran-regulated importin-beta cargo) - Importin beta complex dissociation; Snurportin-1 (Homo sapiens) + GTP-binding nuclear protein Ran (Homo sapiens) + Importin …; Biochemical FRET Rango-importin beta, RanGTP-induced dissociation; Potency, µM (doses to about 46.1 µM), inactives show top-dose activity change, negative = inhibition; hit rate 0.071% among 340,000; active means falling FRET ratio curve, often poorly fitted, with flat reads before Ran was added; inconclusive means other falling curves, or compound fluorescence or quenching; inactive means flat or rising ratio curve;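 note: potency is the fitted concentration of half-maximal effect; % of control where 0% means no effect; nearly all actives have a fitted effect of over 45% in size; -100% = wells without RanGTP and RCC1; the record marks most hits as doubtful in a second field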
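Rango (0.1 uM)–importin beta (0.25 uM) complex; RanGTP-RCC1 trigger; 45 min RT; CFP/YFP FRET read.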
miR-21 reporter: qHTS Assay for Modulators of miRNAs and/orActivators of miR-21 | HeLa miR-21 FLuc reporter, luciferase, 48 h | Potency, µM (doses to about 38.3 µM), without a hit: at the top dose reporter change, positive = more light | 340,000 tested, under 10 active; active = well fitted rising curve with a large enough effect; inconclusive = small, poorly fitted or top-dose-only effect; inactive = no such curve, though single readings can be large or run the other way;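 note: % of control where 0% means no effect; miR-21 action dims this reporter so a rising signal means less miR-21 action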
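Using DMEM plus 10% FBS, HeLa miR-21-FLuc cells are incubated with test compounds (final up to about 40uM) for 48 hours; firefly luciferase signal is then imaged following reagent-mediated lysis.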
* marks the source's active call; other numbers are inactive results; ? = inconclusive; nt = no result given; & = joins results of further samples.

SMILES	Rango complex inh	GLA inh pH 4.5	Rango dissoc inh	miR-21 reporter
CCc1ccc(C(=O)N/N=C(\C)c2ccncc2)s1	0.4%	nt	-2%	-73%
COC(=O)c1ccc(C(=O)NC2CCCc3c2cnn3-c2ccccc2F)nc1 (stereo not given)	-0.8%	nt	-4%	21%
CC(C)Oc1ccc(NC(=O)c2ccncc2)cc1	0.1%	-4	-2%	-9%
COc1cc(/C=N\NC(=O)c2ccc(-c3ccccc3)cc2)cc(OC)c1O	-0.9%	nt	-4%	3%
Cc1ccc(S(=O)(=O)N2CCN(C(=O)C3CC(=O)N(c4ccc5c(c4)OCCO5)C3)CC2)cc1 (stereo not given)	0.0%	nt	-10%	nt
CCCOc1ccc(CC(=O)NCC2(c3ccccc3)CCOCC2)cc1OC	-1.0%	3	2%	-3%
CCc1cccc(C)c1NC(=S)N(CCN(C)C)Cc1cccs1	0.6%	8	-8%	-6%
Cc1ccccc1C(=O)Nc1scc(-c2ccc(Br)cc2)c1C(=O)O	-0.7%	nt	2%	nt
Cc1ncc([N+](=O)[O-])n1CC(O)CCl (stereo not given)	2.4%	4	-12%	0%
COc1cccc(CNC(=O)CN(c2cc(C)cc(C)c2)S(=O)(=O)c2c(C)noc2C)c1	-3.2%	-9	-8%	3%
CCOc1ccc(N2CC(C(=O)Nc3ccccc3OC)CC2=O)cc1 (stereo not given)	6.5%	4	-2%	0%
CN(c1ccccc1)S(=O)(=O)c1cccc(NC(=O)Cn2cnc3c2c(=O)n(C)c(=O)n3C)c1	0.8%	-13	-11%	16%
CCCOC1CCCN(C(=O)c2cc(Cl)c(Cl)cc2C(=O)O)C1 (stereo not given)	-1.4%	3	1%	-3%
CCOc1ccc(N=c2scc(-c3ccccc3)n2CCO)cc1	1.2%	-12	-16%	-6%
COc1ccccc1OCCNC(=O)c1ccc(C)o1	-0.1%	nt	0%	nt

Random excerpt: two entries already listed, in no set order.
SMILES	Rango complex inh	GLA inh pH 4.5	Rango dissoc inh	miR-21 reporter
COc1cccc(CNC(=O)CN(c2cc(C)cc(C)c2)S(=O)(=O)c2c(C)noc2C)c1	-3.2%	-9	-8%	3%
CN(c1ccccc1)S(=O)(=O)c1cccc(NC(=O)Cn2cnc3c2c(=O)n(C)c(=O)n3C)c1	0.8%	-13	-11%	16%

Returning to the listing; the three compounds before the break are reprinted first.
SMILES	Rango complex inh	GLA inh pH 4.5	Rango dissoc inh	miR-21 reporter
CCCOC1CCCN(C(=O)c2cc(Cl)c(Cl)cc2C(=O)O)C1 (stereo not given)	-1.4%	3	1%	-3%
CCOc1ccc(N=c2scc(-c3ccccc3)n2CCO)cc1	1.2%	-12	-16%	-6%
COc1ccccc1OCCNC(=O)c1ccc(C)o1	-0.1%	nt	0%	nt
Cc1ccc(C(=O)NCC(=O)Nc2ccc(F)c(F)c2F)cc1	-0.4%	nt	-7%	-3%
CC(C)N=C(NC#N)SCc1ccc(F)cc1	1.8%	-2	10%	-13%
CCCn1c(SCC(=O)Nc2ccccc2C(=O)NC2CC2)n[nH]c1=O	-2.0%	nt	-1%	nt
Cc1ccc(S(=O)(=O)N2CCN(C(=O)COC(=O)c3ccc(O)cc3)CC2)c(C)c1	2.7%	nt	3%	nt
Cc1ccc(S(=O)(=O)N2CCOCC2)cc1C(=O)Nc1nc(-c2cccnc2)cs1	?	-3	-17%	4%
CC(C)(C)c1ccccc1OCCCCCNCCO	2.6%	-7	14%	-9%
CC(C)CC(C(=O)Nc1cccc(O)c1)N1C(=O)c2ccccc2C1=O (stereo not given)	1.5%	nt	0%	-2%
Cc1nnc(N2CCC(C(=O)N3CCCCC3)CC2)c2nn(-c3ccc(Cl)cc3)c(C)c12	1.4%	nt	6%	-2%&1%
COC(=O)c1ccccc1NC(=O)CN1C(=O)c2ccccc2S1(=O)=O	-4.2%	-23	4%	-5%
O=C(COc1ccc2ccccc2c1)Nc1ccc(Cc2ccncc2)cc1	8.8%	-17	-27%	0%
CCOc1ccc(S(=O)(=O)N(CC(=O)Nc2cccnc2)c2ccc(F)cc2)cc1	2.1%	nt	6%	18%
Nc1cc(C(=O)OCC(=O)Nc2cccc(S(=O)(=O)N3CCOCC3)c2)ccc1Cl	1.1%	nt	15%	nt
Fc1ccc(CNC(=S)NC2CCCC2)cc1	-1.3%	3	-20%	-3%
CCOc1cccc2cc(C(=O)NCCC3=CCCCC3)c(=O)oc12	-1.8%	-7	-13%	2%
COC(=O)c1ccc(NC(=O)COC(=O)CSc2nc(C)cc(C)n2)cc1	-1.5%	4	-9%	-3%

In another format: 4 of the compounds above
Rango complex inh | GLA inh pH 4.5 | Rango dissoc inh | miR-21 reporter | structure
1.5% | nt | 0% | -2% | CC(C)CC(C(=O)Nc1cccc(O)c1)N1C(=O)c2ccccc2C1=O (stereo not given)
1.4% | nt | 6% | -2%&1% | Cc1nnc(N2CCC(C(=O)N3CCCCC3)CC2)c2nn(-c3ccc(Cl)cc3)c(C)c12
-4.2% | -23 | 4% | -5% | COC(=O)c1ccccc1NC(=O)CN1C(=O)c2ccccc2S1(=O)=O
8.8% | -17 | -27% | 0% | O=C(COc1ccc2ccccc2c1)Nc1ccc(Cc2ccncc2)cc1

New compounds follow.
SMILES	Rango complex inh	GLA inh pH 4.5	Rango dissoc inh	miR-21 reporter
Cc1sc2ncnc(SCC(=O)NCC(C)C)c2c1C	0.8%	5	-8%	-10%
Cc1cc(C)cc(NC(=O)C(OC(=O)Cn2cnc3c2c(=O)n(C)c(=O)n3C)c2ccccc2)c1 (stereo not given)	0.2%	nt	9%	nt
CCN(CC)CCNC(=S)Nc1ccc(Cl)cc1	-1.2%	11	5%	-3%
CCOC(=O)CC(C)(C)/C(C)=N/Nc1ccc([N+](=O)[O-])cc1[N+](=O)[O-]	6.2%	1	-10%	-2%
O=C(Nc1ccc(N2CCOCC2)cc1)c1ccncc1	-1.7%	2	-4%	-42%
CC1=NNC(=O)C(CC(=O)Nc2ccc(Cl)c(Cl)c2)C1 (stereo not given)	3.7%	-2	1%	-11%
COc1cc(CN2CCNC(=O)C2CC(=O)NCCC2=CCCCC2)cc(OC)c1 (stereo not given)	4.4%	2	4%	?
CC1CCCC(NC(=O)CSC2CCCCC2)C1C (stereo not given)	-2.4%	-27	-12%	-21%
O=C(Nc1ccccc1F)c1ccc(OCc2ccccc2)cc1	1.4%	-2	-2%	-66%
COc1ccc(C(=O)NC2CCc3ccccc32)cc1OC1CCN(C(C)C)CC1 (stereo not given)	-0.9%	nt	-24%	-17%
CC1CCCC(NC(=O)CSc2ccc(F)cc2)C1C (stereo not given)	-1.2%	-2	7%	-6%
NNC(=O)CCCNc1ncc(C(F)(F)F)cc1Cl	-2.8%	0	12%	-3%
CCc1cc(OCCN(C)C)ccc1Cl	0.1%	5	7%	4%
O=C1c2ccccc2NC(c2ccc(-c3ccc(C(F)(F)F)cc3)o2)N1O (stereo not given)	-1.3%	nt	-9%	nt
Cc1cc(OCn2ccc(C(=O)O)n2)ccc1Cl	2.1%	-7	6%	8%
O=C(Cc1cccc2ccccc12)NN1C(=O)C2C(C1=O)C1C=CC2C12CC2 (stereo not given)	-1.3%	9	13%	-3%
Cc1ccc(NC(=S)NC2CC3CCCC(C2)N3Cc2ccco2)cc1 (stereo not given)	?	7	-1%	-2%
COc1ccc(CC(=O)NCCCCc2ccccc2)cc1OC	-2.4%	nt	6%	nt
CC(=O)c1ccc(NC(=O)C2CCCO2)cc1 (stereo not given)	1.4%	nt	12%	-30%
Cc1coc2cc3oc(=O)c(CC(=O)N4C[C@H]5C[C@@H](C4)c4cccc(=O)n4C5)c(C)c3cc12	-1.3%	nt	-9%	-3%
COc1ccc(NS(=O)(=O)c2cc(NS(=O)(=O)c3cc(C(=O)O)ccc3OC)ccc2C)cc1	0.1%	nt	12%	nt
O=C(O)c1cccc(NC(=O)c2ccc3c(c2)C(=O)N(C2CCCCC2)C3=O)c1	3.4%	nt	1%	-56%
Cc1ccc(C)c(SCC(=O)NCC(c2ccco2)N2CCCCC2)c1 (stereo not given)	-3.2%	nt	?	nt
COc1ccccc1C1=Nc2cccc3cccc(c23)N1	-0.3%	-7	16%	-10%
Cc1cccc2cc(CN(Cc3ccco3)C(=O)c3ccncc3)c(=O)[nH]c12	-0.9%	-8	-5%	7%
CC(NS(C)(=O)=O)C(c1cccs1)N1CCN(Cc2ccccc2)CC1 (stereo not given)	-0.3%	4	13%	0%
CN(c1ccc(-c2csc(NC(=O)C3CC(=O)N(Cc4ccco4)C3)n2)cc1)S(C)(=O)=O (stereo not given)	2.0%	nt	38%	nt
CN(CC(=O)NCCc1ccccc1)S(=O)(=O)c1ccc(Br)s1	1.9%	nt	-9%	2%
O=C(N/N=C1\CCCc2c1[nH]c1ccc(Cl)cc21)c1ccncc1	?	-3	-27%	-11%
C[C@H](NC(=O)C1CCN(S(=O)(=O)c2ccccc2)CC1)C(=O)NCc1cccc(Cl)c1	1.4%	nt	18%	-3%
O=C(c1ccccc1NS(=O)(=O)c1ccccc1[N+](=O)[O-])N1CCOCC1	0.4%	-5	-1%	0%
COc1ccc(C(=O)NCCCc2ccccc2)cc1OC	11%	nt	-10%	-11%
Cc1ccc(-c2nc(N)n(C(=O)c3cccnc3)n2)cc1	0.6%	-1	-21%	-14%
COc1ccc2c(c1)CCc1c(C(=O)Nc3c(C)n(C)n(-c4ccccc4)c3=O)noc1-2	-0.4%	0	0%	-10%
C=CCn1c(SCC(=O)Nc2ccc(C(=O)OCC)cc2)nnc1-c1sc(N)nc1C	-1.0%	-1	-6%	19%
COCc1cc(=O)n2c(-c3ccccc3OC)n[nH]c2n1	4.1%	1	-11%	-1%
CNc1cc(CSC)nc(SCc2ccc(Cl)c(Cl)c2)n1	0.7%	-3	2%	-13%
O=C(Nc1ccc(Cl)c(Cl)c1)NC1CCS(=O)(=O)C1 (stereo not given)	-1.2%	nt	-19%	0%
Cc1cc(=O)oc2c(CN3CCCCC3)c(O)ccc12	?	nt	?	nt
COCCCNC(=O)COc1ccc(Cl)c(C)c1	-0.1%	13	13%	-8%
COc1ccc(NC(=O)C(c2ccccc2)c2ccccc2)c(OC)c1	0.5%	nt	9%	nt
O=C1C2N=NN(CC(=O)N3N=C(c4cccc5ccccc45)CC3c3ccccc3)C2C(=O)N1c1ccccc1 (stereo not given)	-4.1%	-12	-23%	-16%
Nc1cccc2c1C(=O)N(C(=O)c1cccc(S(=O)(=O)N3CCCCCC3)c1)C2=O	?	2	?	-11%
CCOc1ccc2nc(C)cc(C(=O)O)c2c1	2.2%	-8	1%	-2%
N#Cc1nc(-c2ccccc2F)oc1NCCc1ccccn1	-4.1%	0	-7%	-9%
COC(=O)CSc1nc2sc3c(c2c(=O)n1C1CCCCC1)CCN(C)C3	nt	3	nt	-11%
Cc1ccc(C)c(S(=O)(=O)N2CCCC2CNC(=O)C(=O)NCC2CCCO2)c1 (stereo not given)	0.9%	nt	-5%	nt
CC(Oc1ccccc1F)C(=O)NNC(=O)CCS(=O)(=O)c1ccccc1Cl (stereo not given)	4.1%	nt	9%	nt
Cc1ccc(-n2c(C)cc(/C=C3\NC(=O)NC3=O)c2C)c(C)c1	-4.4%	-9	-9%	-35%
O=C(C1CC1)N1N=C(c2ccncc2)CC1(O)C(F)(F)F (stereo not given)	0.2%	-4	0%	-6%
CCN(CC)CCSc1nnc2c3cc(F)ccc3n(Cc3ccccc3)c2n1	1.9%	nt	11%	0%
O=C(NCc1cccnc1)Nc1cccc(NC(=O)NCc2cccnc2)c1	0.0%	-2	5%	0%
COc1ccc(S(=O)(=O)NC(C)CCc2ccccc2)cc1 (stereo not given)	-1.3%	-3	6%	-5%
Cc1ccccc1/C(N)=N/OC(=O)/C=C/c1ccccc1	3.6%	0	-8%	-63%
CCc1nn(C(C)C(=O)N2CCN(Cc3ccccc3)CC2)c(=O)c2cc3occc3n12 (stereo not given)	1.3%	-6	1%	1%
Cc1ccc(S(=O)(=O)N2CCN(CCNC(=O)C(=O)Nc3ccc(F)cc3)CC2)cc1	-0.3%	nt	-12%	-1%
Cc1cc(NC(=O)CSc2nnc(-c3ccccc3C)n2C)no1	-2.8%	nt	-1%	nt
O=c1c2ccccc2nc2n1CCN2Cc1ccc(Cl)cc1	8.0%	0	0%	8%
Cc1c(OCC(=O)NCCCN2CCOCC2)ccc2c(-c3ccccc3)cc(=O)oc12	?	nt	-13%	-8%

Only part of the results is shown; rates above refer to the full screens.
